Screening data from PubChem BioAssay.
2A StopGo – FMDV 2A StopGo reporter, luciferase signal. human cells with a luciferase reporter of 2A StopGo recoding; control for the full effect not named in the record. Potency, µM (series often up to 57.9 µM), for inactives: at the top dose signal change, negative = less light. 410,000 tested, 1.2% active. AID 1159524; active = well fitted falling curve with a large enough effect; inconclusive = small, poorly fitted or top-dose-only effect; inactive = no such curve, though single readings can be large or run the other way; tested in HEK293T cells; also: % is scaled to controls: 0 for no effect and ±100 for the full control effect; nearly all actives have a fitted effect of over 45% in size; luciferase light after 4 h
RE007 growth inh – less growth of the S. pombe RE007 Vpr strain | S. pombe RE007 Vpr strain, BacTiter-Glo ATP luminescence, 24 h; control for the full effect not named in the record | Potency, µM (doses to about 92.2 µM), inactives show at the highest dose activity change, negative = less growth | 360,000 tested, 0.21% active | AID 651644; active = well fitted falling curve with a large enough effect; inconclusive = small, poorly fitted or top-dose-only effect; inactive = no such curve, though single readings can be large or run the other way;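 also: % is scaled to controls: 0 for no effect and ±100 for the full control effect; nearly all actives have a fitted effect of over 50% in size; the assay follows cell death caused by Vpr and the record does not say whether a fall means rescue or toxicity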
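Fission yeast strain RE007, carrying one chromosomally integrated HIV-1 vpr copy, was seeded at OD 0.01 in PMG+AL medium with 23 nL pinned compound. After 24 h at 30 °C and 99% humidity, viability was read by BacTiter-Glo luminescence.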
NS1 inh – inhibitors of influenza NS1 protein function. Potency, µM (titrated, usually from 46.1 µM), for the others: top-dose activity, positive = more growth. S. cerevisiae slowed by influenza A NS1, growth recovery by OD600. 270,000 tested, 0.4% active; active means well fitted rising curve with a large enough effect; inconclusive means small, poorly fitted or top-dose-only effect; inactive means no such curve, though single readings can be large or run the other way; also: nearly all actives have a fitted effect of over 50% in size
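Growth recovery, yeast-based: influenza A NS1 expressed in S. cerevisiae causes slow growth, and suppressors are detected by OD600. The parent strain without NS1 is used as positive control.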
Cruzain noTriton – inhibitors of Trypanosoma cruzi cruzain without detergent | Potency, µM, for the others: max response, negative = inhibition, actives largely listed as inhibitors | P25779 | purified cruzain, Z-FR-AMC fluorescence, no detergent | 200,000 tested, 2.3% active;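 also: plate controls were enzyme without inhibitor for no effect and buffer without enzyme for full effect; nearly all actives have a fitted effect of over 40% in size; top concentration of the series not given in the record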
Target sequence (P25779 123-467 limits assumed): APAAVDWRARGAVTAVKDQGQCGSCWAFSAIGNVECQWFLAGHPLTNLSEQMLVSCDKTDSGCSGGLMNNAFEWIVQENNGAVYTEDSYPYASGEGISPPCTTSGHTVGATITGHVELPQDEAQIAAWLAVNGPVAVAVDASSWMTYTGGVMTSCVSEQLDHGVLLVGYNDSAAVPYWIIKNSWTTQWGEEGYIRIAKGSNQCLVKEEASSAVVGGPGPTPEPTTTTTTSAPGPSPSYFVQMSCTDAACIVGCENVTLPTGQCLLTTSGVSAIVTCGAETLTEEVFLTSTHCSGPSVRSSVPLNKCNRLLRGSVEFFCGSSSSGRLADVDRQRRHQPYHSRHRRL
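Purified cruzain at 1.5 nM, pre-incubated 15 min with compound at room temperature in 100 mM sodium acetate pH 5.5, 5 mM DTT, 0.00005% Triton X-100. Reaction started with 2 uM Z-FR-AMC; AMC fluorescence increase over 60 s gives rate.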
SARS PLpro yeast – inhibitors of SARS-CoV papain-like protease in yeast. Potency, µM (series often up to 32.9 µM), for the others: at the highest dose activity, positive = growth rescue. S. cerevisiae expressing SARS-CoV PLpro, growth rescue; control for the full effect not named in the record. 330,000 tested, 0.19% active; active means well fitted rising curve with a large enough effect; inconclusive means small, poorly fitted or top-dose-only effect; inactive means no such curve, though single readings can be large or run the other way; also: 0% is about no effect; nearly all actives have a fitted effect of over 55% in size; growth read by luminescence after 48 h
Cruzain inh Det – inhibitors of Trypanosoma cruzi cruzain with detergent | P25779 | purified cruzain, Z-FR-AMC fluorescence, 0.01% Triton | Potency, µM, for inactives: max response, negative = inhibition, actives largely listed as inhibitors | 200,000 tested, 0.43% active;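 also: plate controls were neutral wells for no effect and buffer without enzyme for full effect; nearly all actives have a fitted effect of over 40% in size; top concentration of the series not given in the record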
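Purified cruzain (1.5 nM final) was preincubated with compounds for 15 min at room temperature in 100 mM sodium acetate pH 5.5, 5 mM DTT, 0.01% Triton X-100. Reaction started with 2 uM Z-FR-AMC; AMC fluorescence change over 60 s gave activity.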
Marburg entry inh – Marburg virus entry inhibition; Marburg virus pseudotyped entry inhibition, cell reporter; control for the full effect not named in the record; about a third of the inactives were read at about 46 µM; Potency, µM (top dose mostly 37.8 µM), without a hit: top-dose activity change, negative = inhibition, usual class: inhibitors; 300,000 tested, 1.8% active; active = well fitted inhibition curve with a large enough effect; inconclusive = small, poorly fitted or top-dose-only effect, or effect the other way; inactive = flat fitted curve, though single readings scatter; tested in HEK293 cells; about a fifth of its hits are not listed in these tables; also: % is scaled to controls: 0 for no effect and ±100 for the full control effect; luciferase read-out
LASV entry inh – inhibitors of Lassa virus binding or cell entry; Lassa virus pseudotype entry inhibition, cell reporter; control for the full effect not named in the record; Potency, µM (series often up to 37.9 µM), for the others: top-dose activity change, negative = inhibition, hits mostly inhibitors; 300,000 tested, 1.2% active; active means well fitted inhibition curve with a large enough effect; inconclusive means small, poorly fitted or top-dose-only effect, or effect the other way; inactive means flat fitted curve, though single readings scatter; tested in HEK293 cells; also: % is scaled to controls: 0 for no effect and ±100 for the full control effect; nearly all actives have a fitted effect of over 50% in size; luciferase read-out
An asterisk follows results filed as active; ? = inconclusive; . = no result given; & = joins results of further samples; [ ] = remark or other dose. Unless noted, calls follow the shape of the dose curve; as a rule, active = well fitted curve in the direction sought with a large enough effect; inconclusive = small, poorly fitted or top-dose-only effect, or another doubt; inactive = no such curve, though single readings can be large; an effect the other way counts as inactive or inconclusive. Potency is read from the fitted curve at half-maximal effect. The order is random; 4.8% or so of the library scored in one or more.

| compound | 2A StopGo | RE007 growth inh | NS1 inh | Cruzain noTriton | SARS PLpro yeast | Cruzain inh Det | Marburg entry inh | LASV entry inh |
| --- | --- | --- | --- | --- | --- | --- | --- | --- |
| CC1CCCCN1C(=O)CSc1nnc(-c2c[nH]c3ccccc23)o1 (stereo not given) | . | -8% | -3% | ? | 1% | -0.2% | -3% | -2% |
| COc1ccc(OC)c(NC(=O)CSc2nc(-c3ccccc3)cc(=O)[nH]2)c1 | -10% | -19% | 10% | . | 7% | . | . | . |
| Cc1ccc(S(=O)(=O)NNC(=O)/C=C/c2cccc(F)c2)cc1 | 3% | 8% | 3% | . | -1% | . | . | . |
| O=C1C=C(N(CCO)Cc2ccccc2)c2ccccc2C1=O | 14µM* | -30% | . | . | -13% | . | ? | 4.5µM* |
| CCC1COCCS(=O)(=O)N1Cc1ccccc1F (stereo not given) | -2% | 1% | 0% | . | -3% | . | . | . |
| O=C(NCc1ccco1)C1CCN(S(=O)(=O)N2CCOCC2)CC1 | -1% | 16% | 5% | 1% | -7% | 2.1% | 11% | 0% |
| Cc1nc(-c2cccc(NC(=O)c3cccs3)c2)cs1 | -4% | ? | -24% | -16% | -41% | -8.6% | 13%[46.1 µM] | 4% |
| O=c1c2c(-c3cccs3)csc2ncn1-n1cccc1 | 0% | -8% | -1% | ? | 4% | -3.3% | -7% | 2% |
| Cc1ccc(Cn2c(SCC(=O)Nc3cc(C)on3)nc3ccccc3c2=O)cc1 | 14% | 27% | 1% | ? | -7% | 1.8% | 5%[46.1 µM] | 2% |
| CCN(CC)C(=O)C1CCN(S(=O)(=O)c2ccc(-n3cnnn3)cc2)CC1 | -18% | -3% | 0% | . | 1% | . | -16%[14.2 µM] | -8% |
| CCCCNS(=O)(=O)c1ccc2nc(-c3cccnc3)cc(C(=O)NCCOC)c2c1 | 74%&80%[activator] | 4% | 0% | -2% | 1% | -2.6% | . | 2%[46.1 µM] |
| Cc1cn2c(-c3cccnc3)nnc2s1 | 5% | 15% | 3% | -4% | 4% | -1.9% | -1% | 8% |
| Cc1cccc(Cn2c(CN3CCCC(C)C3)nc3c2c(=O)n(C)c(=O)n3C)c1 (stereo not given) | -16% | . | . | 0% | . | -0.3% | 16%[46.1 µM] | 14%[46.1 µM] |
| CSc1nsc(SC)c1CO | -8% | -5% | 1% | . | 1% | . | -8% | . |
| CCOC(=O)Cn1c(=O)n(CC2CCCO2)c2nc(-c3ccc(C)cc3)nc(C(N)=O)c21 (stereo not given) | -28% | . | . | ? | . | -2.7% | . | -5%[46.1 µM] |
| Cc1ccc(-n2nc(C(=O)c3ccccc3)n3c(=O)cc(-c4ccccc4)nc23)cc1 | -9% | 8% | -1% | ? | -7% | 0.3% | -4% | 2% |
| O=C(Cc1ccccc1)NC1CCN(S(=O)(=O)c2ccc(C(=O)O)cc2)CC1 | 15% | -2% | -21% | -5% | 11% | 6.5% | -11% | -2% |
| CCCc1noc(-c2ccc(NCc3ccccc3OC)c([N+](=O)[O-])c2)n1 | ? | . | . | 15% | . | -2.7% | 0%[46.1 µM] | 18%[46.1 µM] |
| CC1Cc2ccccc2N1C(=O)CSc1nnc(Cc2ccccc2)n1CCc1ccccc1 (stereo not given) | ? | -7% | 21% | 24% | -17% | -7.8% | ? | ? |
| O=C1N(c2ccccc2)C(=Nc2ccccc2)SC12CC2 | -9% | 1% | -3% | . | 1% | . | ? | -19% |
| CC(=O)OC[C@H]1O[C@@H](Sc2cccc3cccnc23)[C@H](OC(C)=O)[C@@H](OC(C)=O)[C@H]1OC(C)=O | -10% | 2% | -10% | -2% | 1% | 1.4% | 5% | -21% |
| Cc1c(OC(C)C(=O)NCC2CCC(C(=O)O)CC2)ccc2c1oc(=O)c1ccccc12 (stereo not given) | -22% | -11% | 16% | . | -12% | . | . | . |
| Cc1cc(C)c2c(=O)[nH]n(C3CCCCCC3)c2n1 | -9% | -4% | -1% | . | 0% | . | 10%[46.1 µM] | 17%[46.1 µM] |
| COc1ccc(CCNC(=O)c2cc(-c3ccc(Cl)c(Cl)c3)oc2C)cc1 | ? | -8% | ? | ? | -6% | 1.5% | 5% | ? |
| Nc1c(-c2ccccc2)c(CN2CCOCC2)nn1-c1ccccc1 | 13% | -3% | 3% | 0% | -18% | -2.4% | . | . |
| NCC(O)(c1ccc(Cl)cc1)c1ccc(Cl)cc1 | -11% | -14% | 5% | . | 0% | . | . | . |
| CC(O)[C@H]1CNC(=O)C(=O)N1CC1(c2ccccc2)CC1 (stereo not given in full) | -3% | 6% | 4% | . | 2% | . | . | . |
| CN1CCN(c2nc(-c3cccnc3)nc3ccccc23)CC1 | 6%&-3% | -15% | -1% | -8%&1% | -1% | 4.2%&-7.1% | ? | ? |
| COc1cc(C(=O)NCCCNc2ccc([N+](=O)[O-])cc2)cc(OC)c1OC | -22% | 15% | -2% | 2% | 13% | -4.9% | -11% | 1% |
| COc1ccc(C#Cc2ccc3c(=O)c4ccccc4n(C)c3c2)cc1 | -7% | 5% | 18% | . | -1% | . | . | . |
| CC(=O)c1c(C(C)=O)c(C)n(NC(=O)c2ccncc2)c1C | 0% | -8% | 18% | -7% | 4% | 13% | 4% | 8% |
| CC(C)(O)[C@H](O)COc1c2occc2cc2ccc(=O)oc12 | 0% | 6% | 1% | 0% | 14% | 0.4% | -2% | -14% |
| CN(C)CC(C)(C)CNS(=O)(=O)c1cccc2nsnc12 | -16% | 20% | 22% | 3% | 8% | -3.4% | -11% | -6% |
| COCCCNC(=S)NNC(=O)c1cc(-c2ccncc2)nc2ccccc12 | -5% | -29% | -2% | . | 0% | . | -31% | -13% |
| Cc1c(NC(=S)NC(=O)c2ccc(COc3ccccc3)cc2)cccc1C(=O)O | -3% | -1% | 5% | . | -8% | . | 14%[46.1 µM] | ? |
| O=C(OCCN=C1NS(=O)(=O)c2ccccc21)c1ccncc1 | 33%[activator] | -17% | 4% | -2% | 6% | 4.0% | 8% | 1% |
| Cc1ccc(NC(=O)c2cccc3ccccc23)cc1 | 56%[activator] | -19% | 3% | . | -2% | . | 9% | 26% |
| CC1(c2ccc([N+](=O)[O-])cc2)NC(=O)N(CC(=O)c2ccc3c(c2)OCO3)C1=O (stereo not given) | -2% | -13% | . | . | -6% | . | 14% | -21%[46.1 µM] |
| COc1ccc(CNCC(O)(c2ccccc2)c2ccc(F)cc2)cc1OC (stereo not given) | ? | -6% | -1% | . | -1% | . | 2.8µM* | ? |
| Cc1cc(N2C(=O)C(O)=C(C(=O)c3ccco3)C2c2cccc(O)c2)no1 (stereo not given) | -15% | -10% | 16% | . | -8% | . | . | . |
| CCc1nnc(NC(=O)CCNC(=O)c2ccccc2Cl)s1 | 2% | 9% | 5% | . | 1% | . | 9%[46.1 µM] | 5% |
| CCN(CC)CCn1c2c(c(SCC(=O)Nc3ccc4c(c3)OCO4)nc1=O)CCC2 | -11% | -15% | . | . | -3% | . | -19% | 0% |
| O=C(NCc1cccc(Cl)c1)c1cccc(S(=O)(=O)N2CCCC2)c1 | -3% | 12% | . | . | -4% | . | -4% | 3% |
| O=C(O)c1sccc1OCc1ccccc1 | 9% | 0% | 3% | . | 0% | . | ? | -8% |
| COc1ccc(S(=O)(=O)N(C)CC(=O)N2CCCCC2)cc1Cl | -11% | 9% | -10% | 10% | 1% | 1.7% | 14% | 6% |
| COc1ccc(S(=O)(=O)N2CCC(C(=O)NCCCn3ccnc3)CC2)cc1C | -12% | -8% | 15% | . | -2% | . | 1%[46.1 µM] | ? |
| CCCCc1ccc(NC(=O)CSc2nnc(CNC(=O)c3ccco3)o2)cc1 | -26% | 5% | 12% | . | 11% | . | . | . |
| COC(=O)Cc1cccc2c(=O)c3ccccc3oc12 | -15% | 10% | -5% | . | 0% | . | 23%[46.1 µM] | -25%[46.1 µM] |
| O=C(CSc1nnc(Cn2nnc3ccccc32)o1)N(Cc1ccc(Cl)cc1)c1ccccc1 | ? | 2% | 23% | -5% | 5% | 0.6% | 6.3µM* | ? |
| CCOC(=O)C1=C(C)n2c(s/c(=C/c3cccc([N+](=O)[O-])c3)c2=O)=NC1c1ccc(O)c(OC)c1 (stereo not given) | ? | 7% | 8% | 2% | 2% | 0.2% | ? | ? |

New compounds follow
| compound | 2A StopGo | RE007 growth inh | NS1 inh | Cruzain noTriton | SARS PLpro yeast | Cruzain inh Det | Marburg entry inh | LASV entry inh |
| --- | --- | --- | --- | --- | --- | --- | --- | --- |
| CCOc1cc(C)ccc1OCc1nnc(SCC(=O)c2cccc([N+](=O)[O-])c2)n1C | . | 7% | 23% | -5% | ? | -0.7% | -5% | -3% |
| Cc1cc(=O)[nH]c(SCC(=O)NCCOc2ccccc2)n1 | . | -1% | -4% | 2% | -3% | 0.7% | ? | 12% |
| Cc1ccc(C)c(CNC(=O)c2cc3ccccn3n2)c1 | -10% | . | . | -9% | . | -0.2% | . | -16%[46.1 µM] |
| Cc1ccccc1NC(=O)Nc1nnc(Cc2ccc([N+](=O)[O-])cc2)s1 | -3% | -1% | 18% | -27% | -17% | -1.6% | ? | ? |
| Cc1ccccc1C1CC(=O)Oc2cc(O)ccc21 (stereo not given) | -14% | 8% | . | -1% | 1% | 0.2% | . | . |
| Cc1ccc(/C=C/C(=O)O)cc1S(=O)(=O)N1CCc2ccccc2C1 | -1% | -11% | 2% | . | 10% | . | -9%[46.1 µM] | 14% |
| CS(=O)(=O)c1ccc2nc(NC(=O)c3ccco3)sc2c1 | 17% | -17% | -20% | -12% | -47% | -4.2% | -40% | ? |
| CCN(CC)S(=O)(=O)c1ccc2oc(C(=O)NCc3ccc(F)cc3)c(C)c2c1 | ? | -3% | -3% | -18% | -2% | -6.6% | ? | 5.8µM* |
| O=C(NCCC1=CCCCC1)c1ccc2c(=O)n3c(nc2c1)CCCCC3 | 3% | -4% | -46% | 5% | -11% | 1.5% | . | . |
| CCCc1nc(SCC(=O)N2c3ccccc3CC2C)c2c(C)c(C)sc2n1 (stereo not given) | . | 5% | 8% | -12% | 10% | -4.9% | 9.2µM* | ? |
| CCOC(=O)c1sc(NC(=O)C(CC)Sc2nccn2C)nc1C (stereo not given) | . | 4% | -5% | 6% | -8% | -2.5% | ? | -1% |
